# Screening data as filed in PubChem.
# gsp agonist: qHTS for Agonist of gsp, the Etiologic Mutation Responsible for Fibrous Dysplasia/McCune-Albright Syndrome: qHTS; AID 624287, 2012; Potency, µM (highest dose often 76.9 µM), for inactives: at the highest dose activation (cAMP increase), hits mostly activators; gsp mutant cells, cAMP HTRF, 30 min; control for the full effect not named in the record; hit rate 0.13% among 340,000; active = well fitted activation curve with a large enough effect; inconclusive = small, poorly fitted or top-dose-only effect, or another doubt; inactive = no such curve, though single readings can be large or run the other way; cell line not stated here;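 further: phosphodiesterase inhibitor Ro 20-1724 added with compounds to block cAMP breakdown; potency means the concentration at half of the fitted maximal effect; nearly all actives have a fitted effect of over 60% in size; about a fifth of the inactives were tested at one dose only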
#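 Cells in DMEM/10% FBS with G418 were pretreated with compounds in DMSO plus […] (300 uM stock) for 30 min at 37C. cAMP was measured by HTRF (cAMP-d2 plus anti-cAMP antibody-K) after 30 min at room temperature.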
# gsp antagonist: qHTS for Antagonists of gsp, the Etiologic Mutation Responsible for Fibrous Dysplasia/McCune-Albright Syndrome: qHTS. AID 624288, 2012. Potency, µM (highest dose often 76.9 µM), without a hit: top-dose activity change, negative = inhibition, most hits filed as inhibitors. hit rate 0.4% among 340,000. gsp-mutant cells, cAMP HTRF, 30 min; control for the full effect not named in the record; active = falling curve of any shape with a large fitted effect; inconclusive = falling curve, mostly with a smaller effect; inactive = flat or rising curve; cell line not stated here;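 further: intracellular cAMP measured with PDE inhibitor Ro 20-1724 present during compound exposure; potency means the concentration at half of the fitted maximal effect; on the % scale 0 is the no-effect control and ±100 the full control effect; nearly all actives have a fitted effect of over 65% in size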
#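 Measurement of cellular cAMP by homogeneous time-resolved fluorescence following a 30 min compound exposure at 37C. The PDE inhibitor […] was present throughout; the assay buffer was DPBS with 0.05% BSA and 0.005% Tween 20.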
# D2 agonist: Beta-Arrestin HTS for Positive Allosteric Modulators of the Human D2 Dopamine Receptor: Agonists; DiscoveRx PathHunter D2 beta-arrestin, luminescence, 90 min; 100% = 57 uM dopamine signal; activation, % (concentration not given with the values); hit rate 0.084% among 360,000; AID 624465, 2012; in the data active = activation above about 40%; inconclusive = about 15% to 40%; inactive = below about 15%; further: compound concentration not given in the record; the text of the record calls up to 30% inactive
# Target sequence (P14416 whole entry, looked up): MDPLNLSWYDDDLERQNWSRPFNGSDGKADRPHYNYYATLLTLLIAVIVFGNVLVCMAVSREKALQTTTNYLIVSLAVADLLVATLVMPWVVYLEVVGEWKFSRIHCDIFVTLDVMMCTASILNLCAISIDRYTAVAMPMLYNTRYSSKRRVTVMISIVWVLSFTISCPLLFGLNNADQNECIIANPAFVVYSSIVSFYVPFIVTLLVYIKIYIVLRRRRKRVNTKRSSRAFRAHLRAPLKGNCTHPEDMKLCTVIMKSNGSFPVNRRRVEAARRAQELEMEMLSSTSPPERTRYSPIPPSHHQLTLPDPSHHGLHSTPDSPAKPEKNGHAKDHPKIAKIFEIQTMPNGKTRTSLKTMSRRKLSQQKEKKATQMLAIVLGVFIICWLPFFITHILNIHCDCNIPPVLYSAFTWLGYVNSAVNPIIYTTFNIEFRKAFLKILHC
#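 Agonist mode: compounds alone added to overnight-plated D2 PathHunter cells for 90 min at 37 C, with 57 uM final dopamine (EC100) defining full response. Beta-arrestin recruitment detected by chemiluminescent reagent, read after 1 h at ambient temperature.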
# Menin MLL FP FL: qHTS Assay for Inhibitors Targeting the Menin-MLL Interaction in MLL Related Leukemias: Competition With Fluorescein Labeled MLL-derived Peptide. Fluorescence polarization, fluorescein-MLL peptide displacement from menin. FP activity change, % at 61.4 µM. 290,000 tested, under 10 active. AID 1766, 2009; inconclusive = falling polarisation curve, or a change in total fluorescence; inactive = total fluorescence flat and polarisation flat or rising; no compound was filed as active; the % refers to the polarisation; negative = inhibition;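 further: % of control where 0% means no effect; inhibitors lower the polarisation; unlabelled MLL peptide was the positive control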
# ClpP mod: qHTS Assay for Activators of ClpP | Potency, µM (titrated, usually from 57.5 µM), for inactives: at the highest dose activity change, negative = active | ATP-dependent Clp protease proteolytic subunit (Bacillus subtilis (strain 168)), P80244 | hit rate 1.9% among 340,000 | purified B. subtilis ClpP, FRET peptide cleavage, 20 min; active = well fitted falling curve with a large enough effect; inconclusive = small, poorly fitted or top-dose-only effect; inactive = no such curve, though single readings can be large or run the other way; further: potency means the concentration at half of the fitted maximal effect; the source files actives as falling curves though it sought activators and does not explain the sign; nearly all actives have a fitted effect of over 65% in size; many hits overshoot -100%
# Target sequence (P80244 whole entry, looked up): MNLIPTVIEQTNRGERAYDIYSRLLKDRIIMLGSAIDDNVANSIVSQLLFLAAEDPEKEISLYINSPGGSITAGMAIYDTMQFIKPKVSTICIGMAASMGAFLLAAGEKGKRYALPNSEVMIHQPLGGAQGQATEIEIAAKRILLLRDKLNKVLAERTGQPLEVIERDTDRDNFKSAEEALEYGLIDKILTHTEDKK
#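 Buffer: 100 mM Tris/HCl pH8, 100 mM KCl, 0.05% low protease BSA, 2.5% glycerol, 0.01% Tween-20. ClpP 10 microg/mL final; 20 min RT; delta FRET normalized to ADEP and DMSO controls.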
# Sfp PPTase inh: qHTS Assay for Inhibitors of Bacillus subtilis Sfp phosphopantetheinyl transferase (PPTase); Biochemical Sfp PPTase activity, qHTS; 4'-phosphopantetheinyl transferase ffp (Bacillus subtilis), Q9F4F7; hit rate 3.5% among 310,000; Potency, µM, for the others: max response, negative = inhibition, hits mostly inhibitors; active means well fitted inhibition curve with a large enough effect; inconclusive means small, poorly fitted or top-dose-only effect, or another doubt; inactive means no such curve, though single readings can be large or run the other way;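 further: the enzyme is Sfp with the accession as filed and its product quenches rhodamine fluorescence; potency means the concentration at half of the fitted maximal effect; 0% = enzyme reaction without inhibitor and -100% = no enzyme wells; top concentration of the series not given in the record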
#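 Step 1, compound plus 15 nM Sfp-PPTase, 15 min, room temperature. Step 2, add rhodamine-CoA (5 uM) and BHQ-2-YbbR (12.5 uM). Step 3, read 525/598 nm fluorescence at 0 and 30 min.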
# PINK1 expr mod: A Quantitative High throughput Screen to Identify Chemical Modulators of PINK1 Expression; PINK1 immunofluorescence, high-content cytometry, 24 h; AID 624263, 2012; Potency, µM (top dose mostly 76.6 µM), for the others: at the top dose activation (PINK1 increase), most hits filed as activators; hit rate 0.2% among 410,000; active = well fitted activation curve with a large enough effect; inconclusive = small, poorly fitted or top-dose-only effect; inactive = flat fitted curve, though single readings scatter; cell line not stated here;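 further: potency means the concentration at half of the fitted maximal effect; % of control where 0% means no effect; nearly all actives have a fitted effect of over 65% in size; a mitochondrial uncoupler was the plate control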
#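 PINK1 protein, normally rapidly degraded, was detected by immunofluorescence after 24 hour compound treatment of a stable cell line. Titration data (5 concentrations) came from laser-scanning cytometry, with CCCP-treated wells as controls.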
# Starred values were filed as active, the others as inactive; ? = inconclusive; . = no result given; & = joins results of further samples; [ ] = another dose, or the depositor's remark.
SMILES,gsp agonist,gsp antagonist,D2 agonist,Menin MLL FP FL,ClpP mod,Sfp PPTase inh,PINK1 expr mod
CCCCn1c(NCc2ccc(N(C)C)cc2)nc2ccccc21,-23%,-12%,-5.6,2.9,-6.6%&-5.6%,?,?
CC1CCCC(NC(=O)CN(C)S(=O)(=O)c2cccc3cccnc23)C1C (stereo unspecified),-23%,-2%,1.1,2.3,0.0%,12%,-0.9%
COc1ccc(S(=O)(=O)N2CCC(C(=O)NCCC(=O)NCc3cccc(OC)c3)CC2)cc1,?,2%,-2.0,.,-2.0%,7%,0.0%
COC(=O)c1c(NC(=O)C2COc3ccccc3O2)sc2c1CCN(C(C)=O)C2 (stereo unspecified),13%,-14%,1.1,4.4,-7.0%,-28%,8.7%
Cc1cccn2c(=O)c3cc(C(=O)NC4CCCCC4C)n(C)c3nc12 (stereo unspecified),6%,8%,-1.0,1.1,3.6%,9%,9.0%
C=CCn1c(CCC)nc2ccccc21,-22%[15.4 µM],12%,0.4,-1.2,-25%,5%,3.7%
N=c1c2c3c(sc2ncn1CCN1CCOCC1)CCCCC3,23%,8%,-1.2,0.6,-11%,8%,-2.0%
CCCc1ccc(S(=O)(=O)N2CCN(Cc3ccco3)CC2)cc1,0%,11%,-1.9,-3.2,-2.9%,2%,-1.7%
COc1ccc(OC)c(NC(=O)CN(Cc2ccc(F)cc2)C2CCCCC2)c1,-5%[15.4 µM],-16%,1.5,7.2,.,5%,12%
CC(C)OC(=O)CSc1nnc(Cc2ccccc2)n1C,-5%,6%,-2.2,0.7,-3.2%,4%,-5.9%[38.3 µM]
Nc1c(S(=O)(=O)c2cccs2)c2nc3ccccc3nc2n1CC1CCCO1 (stereo unspecified),-6%,-8%,-2.0,6.5,8.1%,-15%,6.4%[38.3 µM]
NC(=O)Nc1ccccc1C(=O)Nc1ccc2ccccc2c1,-3%,-4%,-2.5,-1.3,-27%,5%,-0.3%
Cc1ccc(OCc2nnc(NC(=O)c3ccco3)s2)cc1,-24%,-6%,-0.8,1.0,-0.4%,8%,-1.1%
COc1ccc2c(c1)C(=O)c1ccccc1CO2,-6%[15.4 µM],7%,-4.4,2.5,-0.2%,28µM*,0.2%
CCOc1cc(C(=O)N2CCN(c3ccccc3)CC2)cc(OCC)c1OCC,-28%,-5%,-3.4,3.0,-1.8%,4%,2.2%
Cc1noc(NS(=O)(=O)c2ccc(NC(=O)/C=C/c3ccccc3)cc2)c1C,-1%[15.4 µM],-7%,4.9,.,-0.4%,.,1.1%
CCOC(=O)c1ccc(NC(=O)NCc2ccccc2OC)cc1,-2%[15.4 µM],-12%,-0.1,-2.0,.,18%,0.8%
CCOc1ccc(-c2nc(CSc3nnc(C)s3)cs2)cc1OC,1%,15%,-1.0,1.0,?,-12%,2.7%
CCn1c(=O)cc(SCC(=O)Nc2ccc(C)cn2)c2ccccc21,13%,-9%,-8.7,2.5,-28%,13%,6.4%
Cc1cccc(/C(N)=N/OC(=O)CCCc2ccccc2)c1,-20%,-10%,5.0,.,-1.0%,4%,9.3%
O=C(CCCNS(=O)(=O)c1ccc(F)cc1)Nc1ccc(F)cc1,1%,1%,-3.6,2.0,.,10%,2.4%
Nc1nnc(-c2ccccc2[N+](=O)[O-])o1,-4%[15.4 µM],20%,-1.2,0.9,1.3%,10%,-0.3%
Cc1cccc(CSc2ccc(S(=O)(=O)N3CCCC3)cn2)c1,18%,-1%,-3.5,.,-5.2%,.,-0.1%
CC(=O)c1cccc(NC(=O)Nc2cccnc2)c1,16%,16%,1.1,0.5,-1.8%,9%,-3.1%
CC(C)(O)CC[C@@H](O)[C@](C)(O)[C@H]1CC[C@@]2(O)C3=CC(=O)[C@@H]4C[C@@H](O)[C@@H](O)C[C@]4(C)[C@H]3CC[C@]12C,.,-6%,-5.5,-1.8,-0.2%,7%,0.1%
Cc1ccc(CCNC(=O)C2CCCN(S(=O)(=O)c3cccc4nsnc34)C2)cc1 (stereo unspecified),10%,-8%,-3.6,-4.2,-2.9%,26%,6.0%
O=C(c1ccccc1Sc1ccccc1[N+](=O)[O-])N1CCCCC1,11%[15.4 µM],-2%,-6.3,2.3,0.3%,-8%,-1.7%
O=C1c2ccccc2C(=O)N1CCCn1nnc(-c2ccc(N3CCOCC3)cc2)n1,44%,2%,-0.7,-0.7,-0.9%,14%,.
Cc1ccc(C)c(C(=O)COC(=O)c2cc(S(=O)(=O)N3CCOCC3)ccc2F)c1,-36%[inhibitor],.,0.9,.,-2.2%,.,1.7%
O=C(c1ccc(F)cc1)c1c[nH]c(C(=O)NCc2ccco2)c1,-8%,2%,-2.7,2.6,2.1%,24%,0.7%
C=CCN(C(=O)c1ccccc1)c1ccc(OC)cc1,-25%,12%,-2.8,4.0,-4.4%,1%,1.9%
Cc1ccccc1C[n+]1cccc2ccccc21,?,7%,-1.5,.,0.5%,.,0.7%
CC1CCN(CC(=O)Nc2ccc(S(=O)(=O)N3CCC(C)CC3)cc2)CC1,-32%[15.4 µM],15%,2.5,-2.0,0.4%,-25%,15%
CC(C)Oc1ccc(Cc2cnc(=S)[nH]c2N)cc1,-44%[inhibitor],6%,-3.6,6.3,0.5%,4%,0.8%
O=S(=O)(c1ccc(-c2cn3ccccc3n2)cc1)N1CCOCC1,?,-5%,-1.6,-2.3,37%,18%,.
Cc1ccc(/C=N/n2c(C3CCCCC3)n[nH]c2=S)s1,-23%,13%,-0.7,1.8,-1.6%,5%,?
CC(=O)N1C(=O)/C(=C2\SC(=S)N(NC(=O)c3ccc(O)cc3)C2=O)c2ccccc21,?,-7%,13,1.1,.,50µM*,0.1%
CC(=O)Nc1ccc(S(=O)(=O)NCCC(=O)N2CCc3ccccc32)cc1,0%[15.4 µM],15%,-5.0,4.8,4.0%,-8%,0.4%
Cc1cnc(C(=O)OCC(=O)Nc2cc(-c3cc(C)c(C)cc3C)nn2-c2ccccc2)cn1,-7%,-9%,-4.9,.,0.7%,.,-0.9%
Cc1cc(C(=O)N2CCC(C)(C(=O)NS(=O)(=O)C3CC3)C2)n(C(C)(C)C)n1 (stereo unspecified),.,.,3.1,.,0.3%,.,0.4%
Cc1cc(NC(=O)c2ccc(F)c(S(=O)(=O)N3CCCCC3)c2)no1,-23%,-5%,-1.4,1.4,-0.7%,10%,5.1%
Cc1noc(C)c1C(=O)N1CCC2(CCCN(c3ccncc3)C2)CC1,.,.,.,2.4,.,7%,-0.9%
CC1(c2ccccc2)NC(=O)N(CC(=O)NNC(=O)c2cccc(Cl)c2)C1=O (stereo unspecified),19%,16%,-1.3,.,1.2%,.,0.1%
O=C1CCc2cc(S(=O)(=O)N3CCC(C(=O)Nc4nccs4)CC3)ccc2N1,6%,-14%,2.0,1.5,-1.8%,6%,6.0%
COc1ccc(S(=O)(=O)N2CCC3(CC2)OCCN3S(=O)(=O)c2ccc(C)cc2)cc1OC,0%,0%,-2.0,.,1.4%,.,14%
COc1ccccc1C(=O)NCCN1CCN(C(=O)c2ccccc2OC)CC1,-28%,2%,-5.4,0.2,-1.8%,9%,-1.4%
Cc1ccccc1-c1noc(-c2ccc(O)cc2)n1,0%,-12%,2.8,0.2,-1.3%,-4%,.
CC(C)/C=N/NC(=O)c1cc(Br)ccc1O,-11%,-3%,-4.5,-2.0,?,6%,0.6%
CCOC(=O)c1ccccc1NC(=O)Cc1ccccc1OC,-10%,-6%,-3.0,1.0,-8.8%,0%,5.0%[38.3 µM]
Cc1cc(C(=O)NNC(=O)c2cccc(N(C)C)c2)c(C)o1,-3%,4%,-1.2,.,1.9%,17%,1.5%
# Later entries.
SMILES,gsp agonist,gsp antagonist,D2 agonist,Menin MLL FP FL,ClpP mod,Sfp PPTase inh,PINK1 expr mod
CNC(=O)C(=O)NCC1OCCCN1S(=O)(=O)c1ccc(F)cc1C (stereo unspecified),-9%[15.4 µM],15%,-3.2,.,?,4%,1.8%
Cc1cc(C(=O)NNc2ccc(F)cc2F)no1,-2%[15.4 µM],13%,5.8,0.6,.,8%,2.5%
CS(=O)(=O)c1ccc(-c2nnn(CC(N)=O)n2)cc1,-29%[15.4 µM],15%,-1.2,-0.7,.,1%,1.9%
S=C(NCc1ccncc1)Nc1ccc(Cl)cc1Cl,?,-7%,-6.0,-0.1,-0.1%,6%,0.5%
Cn1c(NCC2CCCCC2)nc2cc(-c3ccsc3)sc2c1=O,.,.,-1.2,.,?,.,5.3%
CCc1nc2ccc(C(=O)N(C)Cc3ccco3)cn2c1N(CC)Cc1cccc(Br)c1,.,.,-4.5,.,-6.5%,.,0.5%
COc1cc(/C=C2\SC(=Nc3ccccc3)N(CCc3c[nH]c4ccccc34)C2=O)ccc1OC(C)C(=O)O (stereo unspecified),8%[15.4 µM],35µM*,-4.9,.,-0.5%,-27%,-4.1%
COc1cccc2[nH]c3c(N4CCCC(C)C4)ncnc3c12 (stereo unspecified),-51%[inhibitor],?,-3.6,2.9,?,-7%,17%
O=C(O)/C=C\C(=O)Nc1ccccc1F,-60%[inhibitor],7%,-1.9,3.3,-4.4%,-1%,-2.7%
Cn1c(SCc2ccc(C#N)cc2)nnc1-c1ccncc1,-2%,-1%,0.7,-3.3,1.1%,15%,-0.3%
CN(C)C(=O)c1ccc(NC(=O)CSc2nc3ccccc3[nH]2)cc1,24%[15.4 µM],-5%,-0.1,-1.1,.,11%,1.2%
Cc1csc(SCCN2C(=O)c3ccccc3C2=O)n1,-50%[inhibitor],-7%,-2.1,0.7,0.8%,6%,-2.0%[38.3 µM]
CCOc1ccc2c(c1)c1nnc(SCC(=O)N3CCC(C)CC3)nc1n2C,?,-27%,-4.1,7.2,1.4%,1%,0.7%
O=C(/C=C/c1ccc(F)cc1)N1CCc2ccccc2C1,3%,-17%,5.3,.,-0.3%,.,0.6%
Cn1c(=O)[nH]c(=O)c2c1nc(Br)n2CC(O)COc1ccccc1 (stereo unspecified),-3%,2%,1.1,3.0,1.2%,-23%,-0.9%[38.3 µM]
